Screening data from PubChem.
StopGo RLuc = lowers the Renilla signal of an FMDV 2A StopGo reporter; HEK cells with a luciferase reporter of 2A StopGo recoding; Potency, µM (doses to about 57.5 µM), inactives show top-dose signal change, negative = less light; 0.32% of 120,000 active; AID 1745857; active means well fitted falling curve with a large enough effect; inconclusive means small, poorly fitted or top-dose-only effect; inactive means no such curve, though single readings can be large or run the other way; also: nearly all actives have a fitted effect of over 55% in size; overnight with compound
StopGo FLuc = FMDV 2A StopGo reporter, firefly signal; 0.23% of 120,000 active; HEK cells with a luciferase reporter of 2A StopGo recoding; Potency, µM (doses to about 57.5 µM), without a hit: at the highest dose signal change, negative = less light; active = well fitted falling curve with a large enough effect; inconclusive = small, poorly fitted or top-dose-only effect; inactive = no such curve, though single readings can be large or run the other way; also: nearly all actives have a fitted effect of over 60% in size; overnight with compound
An asterisk follows results filed as active; u = inconclusive; & = joins results of further samples; [ ] = dose if it differs, or a comment. % is scaled to controls: 0 for no effect and ±100 for the full control effect; potency is read from the fitted curve at half-maximal effect.

SMILES	StopGo RLuc	StopGo FLuc
Cc1ccc(NC(=O)CN2CCN(C(=O)CCc3ncc(-c4ccc(C)c(C)c4)o3)CC2)cc1	u	u
CCCn1c2c(c(=O)n(C)c1=O)C(c1ccccc1C)C1=C(COC1=O)N2 (configuration not stated)	-9%	-6%
O=C(Nc1nc2ccc(F)cc2s1)c1nc(S(=O)(=O)Cc2ccccc2)ncc1Cl	25%	57%[activator]
Cc1ccc2c(=O)cc(C(=O)Nc3sc4c(c3C(=O)NCc3ccco3)CCC4)oc2c1C	-5%	-11%
Cc1cc(NC(=O)C(C)Sc2nccn2-c2ccc(Cl)cc2)no1 (configuration not stated)	35%[activator]	45%[activator]
Cc1ccc(-c2nc(CNS(=O)(=O)c3ccc(C)cc3)c(C)o2)cc1	27%	2%
COCCCNC(=O)CCCn1c(=O)c2cccn2c2ccccc21	1%	-15%
CCc1nnc(Cn2cnc3scc(-c4ccc(C)cc4)c3c2=O)o1	-7%	-10%
CC(=O)Nc1ccc(C)c(NC(=O)C2(c3ccc(F)cc3)CC2)c1	1%	-2%
CN(C)S(=O)(=O)c1ccc(N2CCCC2)c(C(=O)N2CCc3ccccc32)c1	69%[activator]	2%
CCOc1ccccc1N(CC(=O)NC(C)CC)S(C)(=O)=O (configuration not stated)	-6%	-7%
COc1cc(-c2noc(-c3cc4cccc(C)c4oc3=O)n2)cc(OC)c1OC	-20%	5%
O=C1CN(C(=O)Cn2ccc3ccccc32)CCN1	35%[activator]	69%[activator]
CCn1c(=O)c2sccc2n2c(CCC(=O)NCc3ccc(Cl)cc3)nnc12	3%	-7%
COc1ccc(NC(=O)CSc2nc3ccc(NC(=O)c4ccccc4F)cc3s2)cc1	4%	82%[activator]
Cc1ccc(C)c(N2CCN(C(=O)C3CCCN(S(=O)(=O)c4cccc5nsnc45)C3)CC2)c1 (configuration not stated)	-3%	-12%
COc1ccc(S(=O)(=O)N2CCN(Cc3ccc4c(c3)OCO4)CC2)cc1OC	18%	15%
CCOC(=O)c1noc2nc(C)n(CC(=O)Nc3ccc(Br)cc3C)c(=O)c12	-11%	u
CCCCCCC1COC(c2ccc(OCC)cc2)OC1 (configuration not stated)	2%	-4%
Cc1ccc([N+](=O)[O-])cc1NC(=O)CN(c1ccccc1)S(=O)(=O)N(C)C	0%	-6%
Cc1ccc2c(c1)c(=O)c1ccccc1n2CCCC(=O)Nc1ccc(F)cc1F	-15%	-7%
COc1ccc(C(C)=O)cc1COC(=O)C12CC3CC(CC(C3)C1)C2	21%	-2%
COc1ccccc1-c1cccc2c3c([nH]c12)[C@@H]1C[C@H]2[C@@H](CN1CC3)[C@H](C)ON2C	-7%	-9%
O=C(Nc1ccccc1C(=O)N1CCCC1)C1CC(=O)N(c2ccccc2)C1 (configuration not stated)	8%	20%
COc1ccccc1CNC(=O)C1CCN(S(=O)(=O)Cc2ccccc2)CC1	-5%	-12%
Cn1nc(C(F)(F)F)c(Br)c1C(=O)Nc1sc2c(c1C#N)CCC2	u	u
CCOc1ccc(NC(=O)C2CCN(S(=O)(=O)c3c(C)noc3/C=C/c3ccco3)CC2)cc1	-8%	-23%
Cc1ccc(CC(=O)Nc2ccc(N(C)C)cc2)cc1	20%	177%[activator]
Cn1c(CN2CCN(c3ccc(NS(C)(=O)=O)cc3)CC2)nc2ccccc21	-5%	7%
CCC(C(=O)Nc1cccc(C(C)=O)c1)n1c(=O)c(-c2ccccc2NC(C)=O)nc2ccccc21 (configuration not stated)	13%	-1%
O=C(Nc1cccc(C(F)(F)F)c1)c1cccc(C(=O)Nc2cccc(C(F)(F)F)c2)c1	-18%	0%
COc1cccc2cc(C(=O)NCc3ccc(C(=O)N4CCCCC4)cc3)c(=O)oc12	-22%	-7%
CCOc1ccc(C(=O)c2oc3ccccc3c2NC(=O)Cc2coc3ccc(CC)cc23)cc1	53%[activator]	-4%
CC(=O)N1CCc2c(sc3c2c(=O)n(-c2cc(Cl)ccc2C)c(=O)n3Cc2ccccc2F)C1	13%	-8%
CCOC(=O)c1oc2cc(OCC(=O)c3ccccc3)ccc2c(=O)c1-c1ccc2c(c1)OCCO2	-24%	0%
CCCNC(=O)C1CCN(S(=O)(=O)c2ccc3c(c2)CCCN3C(C)=O)CC1	33%[activator]	2%
CCc1ccc(-n2nc(C)c3c(C(=O)N4CCN(c5ccccc5)CC4)cc(C)nc32)cc1	3%	-3%
COc1ccccc1C(=O)Oc1ccc(NC(=O)Cc2nn(C)c(=O)c3ccccc23)cc1	1%	-1%
COc1ccc(C2C(C(=O)Nc3cccnc3)=C(C)Nc3nc(-c4ccccc4)nn32)cc1OC (configuration not stated)	2%	-11%
CCc1cc2c(CN3CCN(CCO)CC3)cc(=O)oc2cc1O	0%&-7%	13%&-3%
CSc1cccc(NC(=O)C(c2ccccc2)N2Cc3ccccc3C2=O)c1 (configuration not stated)	220%[activator]	-9%
Cc1ccc(C(=O)Nc2ccc3oc(-c4ccc(F)cc4)nc3c2)cc1[N+](=O)[O-]	-5%	25%
COc1ccccc1CCNC(=O)Cc1c(C)c2c(O)cc(C)cc2oc1=O	10%	2%
Fc1cccc(F)c1/C=N/NC(=S)Nc1ccc(Cl)c(Cl)c1	46%[activator]	137%[activator]
CC(Oc1ccc(F)c(F)c1)C(=O)NCCC(=O)N(C)C (configuration not stated)	-11%	-3%
CCCn1nc(C(=O)OCn2nnc3ccccc3c2=O)c2ccccc2c1=O	-1%	3%
CCc1cccc2c(C(=O)COC(=O)CNS(=O)(=O)/C=C/c3ccc(C)cc3)c[nH]c12	-4%	-2%
Cn1c(=O)oc2cc(S(=O)(=O)N3CCC(C(=O)Nc4ccc(F)c(Cl)c4)CC3)ccc21	-2%	-15%
Cc1ccc(-n2nnnc2Sc2nnnn2-c2ccccc2)cc1	u	u
O=C(NCc1ccccc1)c1nc(S(=O)(=O)Cc2ccccc2)ncc1Cl	u	u
CCOC(=O)c1[nH]c(C)c(C(=O)OC(C)C(=O)OC)c1C (configuration not stated)	2%	0%
CCCc1ccc(C(=O)/C(C#N)=C\c2cn[nH]c2C(C)(C)C)cc1	-28%	-18%
CC1(C)N=C(SCc2ccccc2Cl)c2ccccc2N1	7%	-7%
CS(=O)(=O)N(Cc1csc(-c2cccs2)n1)C1CCN(C(=O)c2ccccc2)CC1	19%	-6%
CC(C)CN(CCNC(=O)CN1C(=O)CSc2ccc(S(=O)(=O)N3CCOCC3)cc21)CC(C)C	-4%	-16%
COc1cccc(-c2nc(CS(=O)(=O)CC(=O)NCCCc3ccccc3)c(C)o2)c1	5%	13%
O=C(CCCCN1CCC(c2ccccc2)C1)c1ccccc1 (configuration not stated)	-3%[1.06 µM]	18%
N#Cc1cccc(NC(=O)NCc2ccncc2)c1	10%	8%
CCOC(=O)c1ccccc1NC(=O)N1CC(C)Oc2ccc(C)cc21 (configuration not stated)	4%	21%
Cc1ccc(S(=O)(=O)Nc2ccc(N(C)C)c(C(=O)O)c2)cc1	-9%	19%

The listing continues.
SMILES	StopGo RLuc	StopGo FLuc
CCN1Cc2nnn(Cc3ccc(C)cc3)c2-c2ccccc2S1(=O)=O	162%[activator]	13%
CCOC(=O)c1nnn(C(CC)C(=O)Nc2cccc(OC)c2)c1C(=O)OCC (configuration not stated)	-4%	16%
CCCNC(=O)C(C)NC(=O)Cc1coc(-c2ccccc2)n1 (configuration not stated)	-7%	0%
CCOc1ccc2nc(N3CCCC(C(=O)NCCc4ccc(C)cc4)C3)sc2c1 (configuration not stated)	1%	23%
COCc1cc(C)nc2sc3c(c12)NC(c1ccccc1C(=O)O)N(c1cccc(C(F)(F)F)c1)C3=O (configuration not stated)	36%[activator]	53%[activator]
Clc1ccc(-n2ncc3c(NC4CCCCCCCCCCC4)ncnc32)cc1	-5%	5%
Cc1nc(NC(=O)Cn2ccc(=O)n(C)c2=O)sc1C	-1%	5%
CC(C)(C)C1CCc2c(sc(NC(=O)c3cccc(Cl)c3)c2C(N)=O)C1 (configuration not stated)	54%[activator]	7%
COC(=O)C1(NC(=O)CCNC(C)=O)CCCCCC1	2%	-8%
Cc1ccc(CN(C)C(=O)c2ccc(S(C)=O)cc2)cc1 (configuration not stated)	8%	-3%
CC(C)(C)C(O)C(Oc1ccc(Cl)cc1)n1cncn1 (configuration not stated)	6%[114 µM]	-15%[22.9 µM]
O=C(CNC(=O)c1cc2ccccc2oc1=O)c1ccccc1	-4%	4%
OCc1nc2ccccc2n1CC(O)COc1cc(Cl)ccc1Cl (configuration not stated)	u	u
COc1cc(SC)ccc1C(=O)Nc1ccc(S(=O)(=O)Nc2nccc(C)n2)cc1	20%	-12%
O=C(NCc1ccccc1Cl)c1cc2ccccc2oc1=O	-2%	31%[activator]
CC(=O)Nc1ccccc1SCc1cc(=O)n2cc(C)sc2n1	10%	17%
CCc1nnc(SCc2ccc(OC)cc2)c2cc3sc(C)cc3n12	-14%	-16%
CCCCn1cnc2cc(NC(=O)c3cc(OC)c(OC)c(OC)c3)ccc21	-3%	0%
COc1ccc(C(=O)Nc2ccc(-c3cc4ccccc4oc3=O)c(C)c2)cc1OC	28%	21%
Cc1cc(C)cc(N(CC(=O)NCCc2ccc(Cl)cc2)S(=O)(=O)c2c(C)noc2C)c1	-7%	-20%

Copied from the listing (20 entries):
SMILES	StopGo RLuc	StopGo FLuc
N#Cc1cccc(NC(=O)NCc2ccncc2)c1	10%	8%
CCOC(=O)c1ccccc1NC(=O)N1CC(C)Oc2ccc(C)cc21 (configuration not stated)	4%	21%
Cc1ccc(S(=O)(=O)Nc2ccc(N(C)C)c(C(=O)O)c2)cc1	-9%	19%
CCN1Cc2nnn(Cc3ccc(C)cc3)c2-c2ccccc2S1(=O)=O	162%[activator]	13%
CCOC(=O)c1nnn(C(CC)C(=O)Nc2cccc(OC)c2)c1C(=O)OCC (configuration not stated)	-4%	16%
CCCNC(=O)C(C)NC(=O)Cc1coc(-c2ccccc2)n1 (configuration not stated)	-7%	0%
CCOc1ccc2nc(N3CCCC(C(=O)NCCc4ccc(C)cc4)C3)sc2c1 (configuration not stated)	1%	23%
COCc1cc(C)nc2sc3c(c12)NC(c1ccccc1C(=O)O)N(c1cccc(C(F)(F)F)c1)C3=O (configuration not stated)	36%[activator]	53%[activator]
Clc1ccc(-n2ncc3c(NC4CCCCCCCCCCC4)ncnc32)cc1	-5%	5%
Cc1nc(NC(=O)Cn2ccc(=O)n(C)c2=O)sc1C	-1%	5%
CC(C)(C)C1CCc2c(sc(NC(=O)c3cccc(Cl)c3)c2C(N)=O)C1 (configuration not stated)	54%[activator]	7%
COC(=O)C1(NC(=O)CCNC(C)=O)CCCCCC1	2%	-8%
Cc1ccc(CN(C)C(=O)c2ccc(S(C)=O)cc2)cc1 (configuration not stated)	8%	-3%
CC(C)(C)C(O)C(Oc1ccc(Cl)cc1)n1cncn1 (configuration not stated)	6%[114 µM]	-15%[22.9 µM]
O=C(CNC(=O)c1cc2ccccc2oc1=O)c1ccccc1	-4%	4%
OCc1nc2ccccc2n1CC(O)COc1cc(Cl)ccc1Cl (configuration not stated)	u	u
COc1cc(SC)ccc1C(=O)Nc1ccc(S(=O)(=O)Nc2nccc(C)n2)cc1	20%	-12%
O=C(NCc1ccccc1Cl)c1cc2ccccc2oc1=O	-2%	31%[activator]
CC(=O)Nc1ccccc1SCc1cc(=O)n2cc(C)sc2n1	10%	17%
CCc1nnc(SCc2ccc(OC)cc2)c2cc3sc(C)cc3n12	-14%	-16%

Following part.
SMILES	StopGo RLuc	StopGo FLuc
Cc1oc(-c2ccccc2F)nc1CS(=O)(=O)CC(=O)N1CCN(c2ccc(Cl)cc2)CC1	u	u
O=C(O)c1cc(-c2ccccn2)nc2ccc(F)cc12	-6%	9%
Cc1nnc(SC(C)C(=O)Nc2ccc(F)c(Cl)c2)n1C (configuration not stated)	-1%	-2%
Cc1ccc(C(=O)CSc2nc(-c3ccccc3)nc3c2CCCC3)cc1C	-7%	-12%
Cc1ccc(N2CCn3c2nc2c3c(=O)n(CCc3ccccc3)c(=O)n2C)cc1C	-21%	-17%
O=C(O)CNCc1ccc(F)cc1	16%	22%
COc1ccc(-c2nc3ccccc3n2Cc2ccc(Cl)cc2)cc1	-10%	35%[activator]
C/C(=N/NC(=O)c1ccc(O)cc1)c1ccc(Cl)cc1	9%	162%[activator]
O=C(CSc1nc(-c2cccc(F)c2)[nH]c1-c1ccccc1)Nc1ccc2c(c1)OCO2	13%	u
O=C(/C=C/c1ccccc1C(F)(F)F)c1cc2ccccc2o1	42%[activator]	0%
COc1ccc(NC(=O)c2cc3ccc(O)cc3oc2=O)cc1	3%	142%[activator]
Cc1cc(C)cc(OCC(=O)Nc2nc(-c3ccc(F)cc3)ns2)c1	-19%	-10%
O=C(Cc1ccsc1)NCCc1ccccc1	16%	0%
COC(=O)C1=C(C)N(C)C(=O)NC1c1cccc(Cl)c1Cl (configuration not stated)	5%	-2%
COc1ccc(NC(=O)c2cc3c(=O)n(C)c4cc(Cl)ccc4c3s2)cc1Cl	-13%	-10%
COc1cccc(OC)c1C(=O)C1CC(=O)Nc2c1c(C)nn2-c1cc(C)cc(C)c1 (configuration not stated)	-9%	-10%
O=C(NCC(c1ccccc1)N1CCCC1)c1nn(-c2ccccc2)c(=O)c2ccccc12 (configuration not stated)	-11%	-2%
CCNc1c(NC(=O)NCc2ccccc2)c(=O)oc2ccccc12	-3%	0%
O=C1c2ccccc2CCc2ccccc21	-3%	-7%
CCc1nc2ccccc2n2c(-c3ccccc3)c3c(=O)n(C)c(=O)n(C)c3c12	-8%	-20%
CCCCc1ccc(NC(=O)CC2CCCCC2)cc1	33%[activator]	32%[activator]
O=C(CN1C(=O)COc2ccccc21)Nc1cc(Cl)ccc1Oc1ccccc1	-17%	u

This is a subset. The share of hits here may be higher or lower than overall.
